Screens as filed in PubChem BioAssay.
miR-21 reporter – qHTS Assay for Modulators of miRNAs and/orActivators of miR-21; HeLa miR-21 FLuc reporter, luciferase, 48 h; Potency, µM (titrated, usually from 38.3 µM), for inactives: at the highest dose reporter change, positive = more light; 340,000 tested, under 10 active; AID 2288, 2010; active = well fitted rising curve with a large enough effect; inconclusive = small, poorly fitted or top-dose-only effect; inactive = no such curve, though single readings can be large or run the other way;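 also: % of control where 0% means no effect; miR-21 action dims this reporter so a rising signal means less miR-21 action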
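Using DMEM plus 10% FBS, HeLa miR-21-FLuc cells are incubated with test compounds (final up to about 40uM) for 48 hours; firefly luciferase signal is then imaged following reagent-mediated lysis.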
GLA inh pH 4.5 – qHTS Assay for Inhibitors of Human alpha-Galactosidase at pH 4.5. Alpha-galactosidase A (Homo sapiens), P06280. purified enzyme, 4-MU-alpha-Gal fluorescence, pH 4.5. activity change, negative = inhibition, % at 105 µM. 230,000 tested, under 10 active. AID 1467, 2008; inconclusive = small, poorly fitted or top-dose-only inhibition, or a rising curve; inactive = flat fitted curve, though single readings scatter; no compound was filed as active;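 also: 0% = full activity with enzyme and -100% = basal without enzyme; dose as in the result columns while the protocol names 77 µM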
Rango-impB inh – qHTS Assay for Inhibitors of Rango (Ran-regulated importin-beta cargo) - Importin beta complex formation; Importin subunit beta-1 (Homo sapiens), Q14974; Rango CFP/YFP FRET sensor + importin beta, 45 min; Potency, µM (highest dose often 92.2 µM), inactives show top-dose inhibition of complex formation; 340,000 tested, 0.031% active; active = rising FRET ratio curve, often small or poorly fitted; inconclusive = mostly compound fluorescence or quenching in the first reads; inactive = flat curves in all reads;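 also: potency is read from the fitted curve at half-maximal effect; 0% = DMSO wells and 100% = buffer wells lacking importin beta; nearly all actives have a fitted effect of over 15% in size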
Target sequence (Q14974 whole entry, looked up): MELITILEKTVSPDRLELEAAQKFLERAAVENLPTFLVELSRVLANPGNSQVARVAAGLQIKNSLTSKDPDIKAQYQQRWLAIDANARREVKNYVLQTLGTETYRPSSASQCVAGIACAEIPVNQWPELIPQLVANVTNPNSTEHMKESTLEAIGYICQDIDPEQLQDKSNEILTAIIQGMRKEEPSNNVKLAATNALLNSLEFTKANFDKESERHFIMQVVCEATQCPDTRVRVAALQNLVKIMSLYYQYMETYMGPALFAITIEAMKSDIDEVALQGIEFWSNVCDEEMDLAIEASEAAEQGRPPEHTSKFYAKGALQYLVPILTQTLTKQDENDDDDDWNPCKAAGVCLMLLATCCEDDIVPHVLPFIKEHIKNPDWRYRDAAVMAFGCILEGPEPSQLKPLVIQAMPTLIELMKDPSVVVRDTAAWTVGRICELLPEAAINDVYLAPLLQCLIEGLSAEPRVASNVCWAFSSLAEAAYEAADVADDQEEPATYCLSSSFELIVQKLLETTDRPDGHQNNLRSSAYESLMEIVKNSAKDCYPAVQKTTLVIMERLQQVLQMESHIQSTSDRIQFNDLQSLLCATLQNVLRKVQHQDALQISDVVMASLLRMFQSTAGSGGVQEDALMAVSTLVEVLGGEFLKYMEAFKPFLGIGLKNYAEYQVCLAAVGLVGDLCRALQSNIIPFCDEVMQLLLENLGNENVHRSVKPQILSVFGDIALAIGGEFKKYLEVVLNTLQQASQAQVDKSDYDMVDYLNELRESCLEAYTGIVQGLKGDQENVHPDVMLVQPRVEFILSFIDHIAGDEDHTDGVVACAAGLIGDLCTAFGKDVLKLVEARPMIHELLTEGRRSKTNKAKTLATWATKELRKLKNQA
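FRET biosensor (snurportin 1 IBB flanked by EYFP and cerulean), 50 nM, with compound 5 min, then 0.125 microM importin beta in PBS, 1 mM DTT, 0.02% Tween-20, 0.1% BSA. CFP/YFP ratio read after 45 min at room temperature; pre-read flags interference.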
Rango release inh – qHTS Assay for Inhibitors of RanGTP induced Rango (Ran-regulated importin-beta cargo) - Importin beta complex dissociation; Snurportin-1 (Homo sapiens) + GTP-binding nuclear protein Ran (Homo sapiens) + Importin …; 340,000 tested, 0.071% active; Biochemical FRET Rango-importin beta, RanGTP-induced dissociation; Potency, µM (highest dose often 46.1 µM), for the others: at the top dose activity change, negative = inhibition; active means falling FRET ratio curve, often poorly fitted, with flat reads before Ran was added; inconclusive means other falling curves, or compound fluorescence or quenching; inactive means flat or rising ratio curve;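 also: potency is read from the fitted curve at half-maximal effect; % of control where 0% means no effect; nearly all actives have a fitted effect of over 45% in size; -100% = wells without RanGTP and RCC1; the record marks most hits as doubtful in a second field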
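Compounds sat 5 min at room temperature with 0.1 uM Rango biosensor plus 0.25 uM importin beta, then FRET pre-read. RanGTP-RCC1 (0.6 uM Ran, 2mM GTP, 0.2 uM RCC1) added for 45 min, and the CFP/YFP post-read measured blocked complex dissociation.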
* = called active by the depositor; u = inconclusive; x = no result given. A portion of the library (hit frequency here may not be typical).

SMILES	miR-21 reporter	GLA inh pH 4.5	Rango-impB inh	Rango release inh
COc1ccc(C(C)=O)cc1COC(=O)Cc1cc(OC)c(OC)c(OC)c1	1%	x	-1.9%	-1%
Cc1sc2ncnc(N3CCN(C(=O)c4ccco4)CC3)c2c1C	18%	2	7.1%	-13%
CCC/C(C)=N\Nc1nc2c(c(=O)n(C)c(=O)n2C)n1C	8%	0	-0.7%	10%
CC(=O)N1CCCc2cc(S(=O)(=O)N3CCCC(C(=O)N4CCN(c5ccccc5)CC4)C3)ccc21 (centres undefined)	u	x	-0.5%	1%
Cc1cccc(-n2nnnc2SCn2nnc3ccccc3c2=O)c1	-23%	1	1.3%	6%
COCCCN1C(=O)c2ccc(C(=O)Nc3ccc(OC)cc3)cc2C1=O	-5%	-4	-1.3%	-7%
O=C(O)CCCCCNS(=O)(=O)c1c(Cl)cccc1Cl	-1%	0	1.7%	-2%
O=C(Nc1ccccc1C(=O)N1CCCCCC1)c1ccccc1Cl	0%	-14	3.2%	1%
Cc1ccc(-c2[nH]ncc2CNCCc2cnn(-c3ccccc3)c2)cc1C	5%	-1	-3.6%	36%
COc1ccc2c(=O)c3c(=O)n(Cc4ccco4)c(C(C)C)nc3oc2c1	-3%	-9	-0.2%	1%
Cc1cccc(N(CC(=O)N=Nc2c(O)[nH]c3ccccc23)S(C)(=O)=O)c1C	-8%	-8	2.4%	24%
O=C(NCCc1ccc(Cl)cc1)C1CC(=O)N(C2CCCCC2)C1 (centres undefined)	x	x	-4.9%	-21%
Cc1ccc(O)c(-c2cc(C(=O)Nc3cccnc3)[nH]n2)c1	-66%	0	-0.9%	10%
COc1cc(Cl)c(C)cc1NC(=O)CN1CCCCCC1	-1%	x	3.0%	8%
O=C(N/N=C/c1c[nH]c2ccccc12)C1CC(=O)N(c2ccccc2)C1 (centres undefined)	0%	-11	1.9%	0%
COC(=O)COc1ccc(/C=N/NC(=O)c2ccc(N(Cc3ccccc3)S(C)(=O)=O)cc2)cc1	-6%	2	-1.5%	-8%
COc1c(Br)cc(C(N)=O)cc1OCc1ccccc1	-6%	-6	0.4%	7%
CC1=Nc2cc(C(=O)NCCCN3CCOCC3)ccc2Sc2c(C)ccc(C)c21	19%	x	1.4%	-4%
Cc1ccc(S(=O)(=O)N2CCCCC2)cc1NC(=O)Cn1cc(C(F)(F)F)ccc1=O	x	x	-0.7%	-4%
CC(=O)Nc1ccc(NC(=O)COC(=O)/C(=C/c2ccccc2)n2nnnc2C)cc1	27%	x	0.6%	0%
CC(=O)n1c2ccccc2c2nc(NC(C)C)sc21	-36%	-2	-2.1%	-9%
Oc1cccc(/C=N/Nc2cccc3cccnc23)c1	-22%	-3	u	-2%
O=C(CSCc1ccccc1Cl)Nc1ccc2c(c1)OCCO2	-67%	4	-4.7%	1%
CC1CN(C(=O)c2ccn(C)n2)CC(C)O1 (centres undefined)	-3%	-8	3.0%	3%
CCCc1ccc(C(=O)CCC(=O)O)cc1	-6%	13	2.3%	2%

One compound at a time (already shown). Values in the order: miR-21 reporter | GLA inh pH 4.5 | Rango-impB inh | Rango release inh
COc1c(Br)cc(C(N)=O)cc1OCc1ccccc1 in the list: -6% | -6 | 0.4% | 7%
CC(=O)Nc1ccc(NC(=O)COC(=O)/C(=C/c2ccccc2)n2nnnc2C)cc1 in the list: 27% | x | 0.6% | 0%
CC1CN(C(=O)c2ccn(C)n2)CC(C)O1 (centres undefined) in the list: -3% | -8 | 3.0% | 3%
Cc1cccc(N(CC(=O)N=Nc2c(O)[nH]c3ccccc23)S(C)(=O)=O)c1C in the list: -8% | -8 | 2.4% | 24%
COc1ccc2c(=O)c3c(=O)n(Cc4ccco4)c(C(C)C)nc3oc2c1 in the list: -3% | -9 | -0.2% | 1%

Carrying on:
SMILES	miR-21 reporter	GLA inh pH 4.5	Rango-impB inh	Rango release inh
COc1ccc(OC)c(-c2csc(NC(=O)CN3C(=O)C4CCCCC4C3=O)n2)c1 (centres undefined)	x	x	6.0%	12%
O=C(NC1CC1)C1CCN(c2ncnc3c2sc2cccc(F)c23)CC1	-8%	10	-0.6%	-2%
O=C(c1ccc(CSc2nc3ccncc3[nH]2)cc1)N1CCCCCC1	9%	-10	-1.9%	-9%
N#CCN1C(=O)C2CCCN2c2ccc(S(=O)(=O)N3CCOCC3)cc21 (centres undefined)	2%	11	-0.9%	3%
Cc1cc(S(=O)(=O)N2CCOCC2)ccc1OCC(=O)Nc1cccc(C(F)(F)F)c1	-1%	x	-3.5%	-2%
O=C(Nc1ccccc1)C1CCN(C(=O)c2ccco2)CC1	-2%	x	-0.5%	-14%
Cc1ccc(NCc2nnc(SCC(=O)Nc3cccc(O)c3)n2CC2CCCO2)c(C)c1 (centres undefined)	-7%	-11	-0.4%	-16%
O=C(NN=C1CCCC1)C1COc2ccccc2O1 (centres undefined)	16%	1	-3.2%	10%
CC(C)CNC(=O)COC(=O)c1ccc([N+](=O)[O-])cc1Cl	-1%	5	-0.4%	5%
O=C(CNC(=O)c1ccccc1)NCC(=O)OCc1ccc(Cl)cc1	0%	-11	-0.5%	7%
CN(CCCCCNC(=O)/C=N/O)Cc1ccccc1	-9%	-10	x	x
CCOC(=O)c1cc(-c2cccs2)nc2c1c(C)nn2-c1ccccn1	-2%	-8	-2.0%	4%
CCC(=O)CN(Cc1cc(OC)ccc1OC)S(=O)(=O)c1ccccc1Br	x	x	3.9%	-8%
COc1ccc(COC(=O)c2cccc(S(=O)(=O)N3CCN(C(C)=O)CC3)c2)cc1F	x	x	1.2%	8%
COc1ccc(OC)c(N(CC(=O)N2CCC(C)CC2)S(=O)(=O)c2ccccc2)c1	1%	-1	0.2%	-1%
CC(=O)N1CCCc2cc(S(=O)(=O)CCC(=O)Nc3cccc(C)c3C)ccc21	1%	x	u	20%
COc1ccc(S(=O)(=O)N2CCN(S(=O)(=O)c3ccc(C(F)(F)F)cc3)CC2)cc1C	-1%	-1	1.4%	12%
Cc1ccc(SCC(=O)NNC(=O)c2ccccc2)cc1C	4%	x	-3.7%	-7%
O=C(N/N=C\c1cn[nH]c1-c1ccc(Cl)cc1)c1cccs1	-29%	1	0.5%	-4%
COc1ccc(CCNC(=O)Nc2cccs2)c(OC)c1	-11%	x	u	u
CC(=O)N1CCN(C(=O)c2ccc(S(=O)(=O)Nc3ccccc3Cl)cc2)CC1	x	x	-3.0%	7%
CCCN(CCC)C(=O)c1c(NC(=O)CC)sc2c1CCCCC2	-5%	1	-3.5%	-12%
COc1cc2oc(=O)cc(-c3ccc(-c4ccc(C)cc4)cc3)c2c(OC)c1OC	x	-5	0.6%	u
CN(C(=O)c1ccco1)c1nc(-c2ccc(Cl)cc2)cs1	-31%	x	-0.4%	5%
O=C(COc1ccc(/C=N/NS(=O)(=O)c2ccccc2)cc1)Nc1cccc(Cl)c1	-28%	-17	-1.0%	0%

Remaining list, next part.
SMILES	miR-21 reporter	GLA inh pH 4.5	Rango-impB inh	Rango release inh
COc1ccc([C@H]2C=C(C(=O)O)O[C@@H](OCc3ccc(CO)cc3)C2)cc1	-3%	14	1.9%	3%
COCCn1c(SCC(=O)c2ccccc2)nc2ccccc2c1=O	-1%	4	-2.2%	6%
Cc1nc(CSc2nc3[nH]ncc3c(=O)n2-c2ccccc2)cs1	-9%	0	-0.7%	3%
O=C(Nc1ccccc1C(=O)N1CCOCC1)c1ccc([N+](=O)[O-])cc1	-1%	6	-1.6%	-1%
Cc1ccc(-n2nc(-c3ccc(N)cc3)cc2N)cc1	-36%	4	-3.0%	3%
Cc1nn(CC(=O)NCCCN2CCN(Cc3ccccc3)CC2)c(=O)c2cc(-c3ccccc3)nn12	-2%	x	1.7%	-20%
O=C(Cn1nc(C(F)(F)F)c2c1CCCC2)N1CCOCC1	-1%	3	2.3%	-11%
COc1ccc2[nH]c3c(c2c1)CCN1C(=O)C(CC(=O)NCCCn2ccnc2)C[C@H](C(=O)N2CCOCC2)[C@@]31C (some centres undefined)	x	x	-5.8%	-6%
C=CC[C@H]1CC(C)=C[C@H](CC=C)N1	-1%	5	0.1%	-14%
COc1ccc(C(=O)Nc2ccccc2C(=O)Nc2cccnc2)cc1	-49%	x	4.9%	0%
C(=N\Nc1ccc(-n2ccnc2)nn1)/c1ccccc1	6%	0	-1.9%	12%
Nc1cc(=O)nc(SCC(=O)Nc2ccccc2Cl)n1-c1ccccc1	-6%	2	-1.0%	11%
O=C(CN1C(=O)C2CCCCC2C1=O)N1CCN(c2ccccc2)CC1 (centres undefined)	-10%	1	-0.1%	-6%
CCOC(=O)/C=C1\SCC(=O)N1CC(=O)Nc1ccccc1OC(F)F	-7%	3	0.1%	8%
CCOc1ccc(NC(=S)Nc2ccccc2C2CC2)cc1	-4%	9	-0.9%	5%
CCOc1cc(/C=C2/N=C(c3ccc4c(c3)OCO4)OC2=O)ccc1OC(C)=O	x	x	u	u
c1ccc(CCNCc2cccs2)nc1	x	x	-0.1%	-6%
CC(=O)c1cccc(NC(=O)NCc2ccccn2)c1	-38%	-1	-0.2%	-5%
Cc1ccc(Br)cc1S(=O)(=O)N1CCN(c2ccccc2)CC1	-8%	-5	-0.6%	-3%
O=C(NCCc1ccccc1)c1cccnc1N1CCCCCC1	-10%	9	-0.7%	0%
Cc1cnc(NC(=O)c2cccs2)s1	-41%	x	-2.1%	2%
COc1cc(C(=O)NNC(=O)c2nn(C)c(=O)c3ccccc23)cc(OC)c1OC	x	x	-2.2%	-10%
Cn1c(C(=O)N2CCCC2)cc2c(=O)n(C)c3ccccc3c21	-3%	-3	-3.9%	6%
COc1ccc(/C(C)=N/NC(=O)C(NC(=O)c2ccccc2)c2n[nH]c(=O)c3ccccc23)c(OC)c1 (centres undefined)	-6%	-15	3.2%	-16%
OCC1(CC2CCCCO2)CCN(Cc2cccc(O)c2)CC1 (centres undefined)	-2%	-7	-2.6%	-12%

Other results.
SMILES	miR-21 reporter	GLA inh pH 4.5	Rango-impB inh	Rango release inh
Cc1ccc(C(=O)N2CCOCC2)cc1S(=O)(=O)N1CCCC1	-6%	x	2.4%	-1%
C=CCN(C(=O)c1csnn1)C(C(=O)NC1CCCC1)c1ccc(OC)cc1 (centres undefined)	-1%	x	0.7%	-15%
CCC(CC)COC(=O)C1=C(C)NC(=O)NC1c1ccc(OC)cc1 (centres undefined)	5%	x	-1.6%	15%
Cc1ccc(C(=O)N/N=C/C2=Cc3ccccc3OC2C)cc1 (centres undefined)	-16%	2	u	-12%
CCCCNC(=O)CSc1nc2ccc(N3CCOCC3)cc2c(=O)n1CCc1ccccc1	-2%	4	-6.3%	-13%
COc1ccc(NC(=S)N(CCN2CCOCC2)Cc2cc3cc4c(cc3[nH]c2=O)OCCO4)cc1	-10%	-18	0.5%	-9%
COc1ccc(Sc2ccc(/C=C3\C(=O)NN(c4ccccc4)C3=O)o2)cc1	1%	-8	u	u
O=C(COC(=O)c1cccc(C(=O)OCC(=O)NC2CCCCC2)n1)NC1CCCCC1	-2%	-7	-1.4%	14%
COc1ccccc1-c1nc(-c2ccc(C(=O)O)cc2)no1	x	x	-1.0%	22%
COc1ccc(OC)c(S(=O)(=O)NCCCc2ccccc2)c1	1%	x	0.1%	-15%
Cc1cccn2c(=O)c(/C=C(\C#N)C(=O)NCc3ccco3)c(N3CCCCC3)nc12	-1%	-6	u	-29%
O=C(NCC1CCCN(Cc2nccs2)C1)c1cccc2ccccc12 (centres undefined)	-1%	x	0.2%	-19%
COc1cccc2sc(N(CCCN(C)C)C(=O)c3ccc(S(=O)(=O)N4CCCc5ccccc54)cc3)nc12	22%	x	-0.6%	-2%
O=c1c2c(nc3cc(-c4ccc(Cl)cc4)[nH]n13)CCS2	-55%	-3	-0.9%	12%
COCCOc1cc(COC)nc(-c2cccc(C)c2)n1	-2%	1	4.5%	-4%
Cc1cccc(-c2nnc(SCC(=O)N3CCCC3)o2)c1	-59%	x	-0.3%	13%
